D2 potentiator: Beta-Arrestin HTS for Positive Allosteric Modulators of the Human D2 Dopamine Receptor: Potentiators; D(2) dopamine receptor (Homo sapiens), P14416; 360,000 tested, 0.23% active; DiscoveRx D2 beta-arrestin cells, luminescence, 90 min; 100% = 57 uM dopamine signal; potentiation, % (no concentration beside the values); active = potentiation of 50% or more; inconclusive = 30% to 50%; inactive = 30% or less;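 also: compound concentration not given in the record; tested on top of an EC20 dose of dopamine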
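PathHunter D2 cells, attached overnight at 37 deg C, received compound in DMSO plus dopamine at EC20 (50 nM final) for 90 min at 37 deg C. Beta-arrestin recruitment was read as luminescence after 1 h with detection reagent at ambient temperature.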
TRPML1 agonist: qHTS for Agonists of the Human Mucolipin Transient Receptor Potential 1 (TRPML1) | TRPML1-expressing cells, Ca2+ dye fluorescence, FDSS; host cell line not named in the record; reference of the full effect not given here | activation, % (test concentration not listed) | AID 624414, 2012 | 410,000 tested, 0.12% active; in the data active = activation above about 50%; inconclusive = about 30% to 50%; inactive = below about 30%; also: 0% is about no effect; the text of the record puts the active cut at 80%
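Agonist activity was taken from a 110 s kinetic Ca2+ dye read on the FDSS after pinning compounds onto TRPML1-DL cells. The cells were seeded at 1,500/well with Tet inducer, incubated about 16 h, then dye-loaded at room temperature.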
TRPV1 potentiator: HTS Assay for Compounds that Act as Potentiators of the Vanilloid Receptor 1; Transient receptor potential cation channel subfamily V member 1 (Homo sapiens), Q8NER1; TRPV1-expressing cells, Fluo-8 calcium influx, capsaicin EC20 potentiation; host cell line not named in the record; control for the full effect not named in the record; potentiation, % at 8.33 µM; 320,000 tested, 0.02% active; AID 540277, 2011; active means potentiation above 80%; inconclusive means 30% to 80%; inactive means below 30%; also: 0% is about no effect
Target sequence (Q8NER1 whole entry, looked up): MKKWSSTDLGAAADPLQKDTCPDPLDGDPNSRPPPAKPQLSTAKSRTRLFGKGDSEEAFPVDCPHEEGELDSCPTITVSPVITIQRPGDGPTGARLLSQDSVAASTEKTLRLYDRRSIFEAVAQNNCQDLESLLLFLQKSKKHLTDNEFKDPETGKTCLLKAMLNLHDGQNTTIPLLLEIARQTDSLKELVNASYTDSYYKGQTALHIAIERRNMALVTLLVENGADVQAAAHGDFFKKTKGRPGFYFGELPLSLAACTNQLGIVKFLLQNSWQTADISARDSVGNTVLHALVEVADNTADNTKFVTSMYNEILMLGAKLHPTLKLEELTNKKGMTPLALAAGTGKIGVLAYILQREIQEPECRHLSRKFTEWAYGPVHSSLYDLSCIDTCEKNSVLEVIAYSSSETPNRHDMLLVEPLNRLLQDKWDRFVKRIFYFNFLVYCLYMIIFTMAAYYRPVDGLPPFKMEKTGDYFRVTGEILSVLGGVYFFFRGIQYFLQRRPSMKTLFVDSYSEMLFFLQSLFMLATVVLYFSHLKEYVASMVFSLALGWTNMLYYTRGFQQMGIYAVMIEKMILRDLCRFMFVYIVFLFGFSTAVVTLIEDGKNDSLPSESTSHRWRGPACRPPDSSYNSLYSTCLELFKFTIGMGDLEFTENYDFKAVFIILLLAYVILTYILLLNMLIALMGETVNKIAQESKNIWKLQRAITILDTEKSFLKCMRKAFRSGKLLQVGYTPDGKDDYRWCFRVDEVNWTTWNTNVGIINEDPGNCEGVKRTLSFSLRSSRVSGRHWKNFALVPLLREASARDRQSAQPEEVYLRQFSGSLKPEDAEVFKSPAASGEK
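Cells expressing TRPV1 were dye-loaded with Fluo-8 and read kinetically: 10 s baseline, 3 min after compound (agonist portion), then 2 min after EC20 capsaicin (allosteric enhancer portion). Calcium-bound dye fluorescence at 480/520 nm.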
TRPML1 inh: qHTS for Inhibitors of the Human Mucolipin Transient Receptor Potential 1 (TRPML1) | 390,000 tested, 0.02% active | TRPML1-inducible cells, Ca2+ dye fluorescence, FDSS; active compounds read low; inhibition of EC80 agonist-evoked calcium signal | Mucolipin-1 (Homo sapiens), Q9GZU1 | activity change, negative = inhibition, % (concentration not given with the values) | AID 624415, 2012; in the data active means activity change below about -50%; inconclusive means about -30% to -50%; inactive means above about -30%;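 also: stimulus is agonist 54-4 at its EC80 concentration; % is scaled to controls: 0 for no effect and ±100 for the full control effect; the text of the record puts the active cut at -80%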
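TRPML1-DL cells, Tet-induced overnight (~16 h, 37 °C) at 1,500 cells/well, were loaded with Ca8 no-wash dye plus quencher for 45-90 min at room temperature. Compounds were pinned during FDSS kinetic reading; agonist 54-4 at EC80 (4 uM final) then added.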
Six1-Eya2 inh: qHTS Assay for Inhibitors of the Six1/Eya2 Interaction; activity change, % (test concentration not listed); 360,000 tested, 0.56% active; AID 651725, 2012; AlphaScreen GST-Six1/His-Eya2 binding, biochemical; active compounds read low; control for the full effect not named in the record; in the data active = activity change below about -65%; inconclusive = about -30% to -65%; inactive = above about -30%; also: % is scaled to controls: 0 for no effect and ±100 for the full control effect
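Homogeneous AlphaScreen proximity assay pairing GST-Six1 with His-tagged Eya2 (added as 5X mix: 250 nM and 500 nM) in 50 mM Tris pH 8.0, 300 mM NaCl, 1 mM TCEP. Glutathione donor and nickel acceptor beads; 1 h, 37 °C, dark.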
CtBP-E1A blk: qHTS Assay for Inhibitors of the CtBP/E1A Interaction | AlphaScreen GST-E1A/His-CtBP binding, 1536-well; active compounds read low; control for the full effect not named in the record | activity change, % (no concentration beside the values) | 340,000 tested, 0.49% active | AID 651724, 2012; in the data active means activity change below about -65%; inconclusive means about -30% to -65%; inactive means above about -30%; also: % is scaled to controls: 0 for no effect and ±100 for the full control effect
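Protein mix (5X: 125 nM each GST-E1A, His-CtBP) was incubated with pinned compound 2 h at 37 deg C in dark, in 50 mM Tris pH 8.0 buffer with 300 mM NaCl. Glutathione donor and nickel acceptor beads followed; AlphaScreen signal read after 1 h.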
* = called active by the depositor; ? = inconclusive; . = no result given.

No.	SMILES	D2 potentiator	TRPML1 agonist	TRPV1 potentiator	TRPML1 inh	Six1-Eya2 inh	CtBP-E1A blk
1	O=C(COC(=O)c1n[nH]c2ccccc12)c1ccc(F)c(F)c1	-3	2.7	1	17	3	-25
2	O=[N+]([O-])c1cc(S(=O)(=O)N2CCCCCC2)ccc1F	19	1.9	-3	46	-12	-2
3	CC1(C)CCCN(Cc2c(O)ccc3c(=O)c(-c4nc5ccccc5s4)c(N)oc23)C1	-4	-0.6	19	1	4	0
4	CC1=CC(C)(C)N(C(=O)c2ccccc2)c2ccc(C)cc21	-21	20	-2	-7	5	.
5	CCOC(=O)c1cc(C)n(S(=O)(=O)c2ccc(C)cc2)c1C	-18	0.6	-4	62	16	8
6	CC(NC(=O)Nc1ccc(Cl)cc1)c1ccccc1 (configuration not stated)	-33	.	-14	.	3	.
7	O=C(C/C=N/OCc1ccc(Cl)cc1Cl)c1ccc(Cl)cc1	-1	-1.2	3	11	20	7
8	COc1ccc(C(=O)N2CCC(C(=O)Nc3ccc4c(c3)OCO4)CC2)cc1	-3	-0.7	3	-13	10	.
9	Cc1ccc(COc2ccc3oc(-c4ccccc4)c(C(=O)O)c3c2)cc1	.	1.6	-4	25	.	.
10	CCN(CC)c1ccc(/C=C2/C(=O)c3ccc(C(=O)O)cc3C2=O)cc1	-32	65*	5	-19	-18	1
11	N/C(Cc1ccc([N+](=O)[O-])cc1)=N\OC(=O)C1CCCCC1	2	1.3	5	0	-5	4
12	COc1ccccc1C(=O)N/C(=C\c1ccccc1)C(=O)NC(C)C(=O)O (configuration not stated)	-3	0.9	-11	2	5	0
13	COCCN(C(=O)CSc1nnc(-c2ccccc2F)n1N)c1c(N)n(Cc2ccccc2)c(=O)[nH]c1=O	-9	0.0	16	-7	20	-6
14	CCCNC(=O)C1(C)CCCN(C(=O)c2ccc(F)cc2Cl)C1 (configuration not stated)	-1	-0.8	.	.	1	8
15	N#Cc1cccnc1N1CCN(C(=O)c2ccc3c(c2)S(=O)(=O)c2ccccc2C3=O)CC1	7	0.2	.	-4	-14	?
16	COc1ccc(NC(=O)C(c2ccc(C)cc2)N(C)C(=O)c2ccc(=O)[nH]c2)cc1 (configuration not stated)	4	-0.1	-8	-9	4	14
17	O=[N+]([O-])c1ccc(N/N=C/c2cccc(O)c2O)cc1	-1	1.1	19	3	-8	0
18	NC1=NS(=O)(=O)NC1c1ccc(Cl)cc1 (configuration not stated)	9	-0.7	-3	-13	3	-10
19	O=C(Cn1cncn1)NCc1cccc(C(F)(F)F)c1	-4	0.0	4	4	-2	14
20	Clc1cccc2c3c([nH]c12)CCNC3	-12	-0.9	2	8	5	6
21	COC(=O)CNc1cccc(C(F)(F)F)c1	-19	-0.8	0	2	-3	1
22	CCCC(=O)N1CCN(c2ccc(NC(=O)c3ccc([N+](=O)[O-])o3)cc2)CC1	15	1.3	-4	9	3	-5
23	CC(O)c1cccc(NC(=O)CC(c2ccccc2)c2ccccc2)c1 (configuration not stated)	-7	.	-11	.	-9	.
24	CCOc1ccccc1/C=N/N1CCN(Cc2ccccc2)CC1	-3	1.2	-29	-10	-16	-24
25	CCCCn1c(SCCN2CCCCC2)nc2c1c(=O)n(C)c(=O)n2C	-21	-0.6	.	-23	-10	-1
26	COc1ccc(N2CCN(C(=O)c3c(C)nn(-c4ccccc4)c3C)CC2)cc1	-5	2.0	-8	31	-4	-9
27	COc1ccccc1N/C(N)=N/c1nc(C(F)(F)F)cc(=O)[nH]1	-8	1.4	-41	25	2	-1
28	Cc1nc2ncnn2c(N2CCC(C(=O)NC3CCCC3)CC2)c1Cc1ccccc1	3	2.1	-3	22	2	-1
29	OCCN1CCN(c2ncnc3ccc(Br)cc23)CC1	-11	-1.1	.	4	0	-11
30	CC(C)=CC(=O)Nc1nnc(C(C)C)s1	-3	1.0	7	-6	6	0

No.	SMILES	D2 potentiator	TRPML1 agonist	TRPV1 potentiator	TRPML1 inh	Six1-Eya2 inh	CtBP-E1A blk
31	Cc1ccccc1-c1cc2nc(NCc3ccc(N(C)C)cc3)n(C)c(=O)c2s1	-8	-0.3	.	.	?	?
32	CCOc1ccc(N(C(C)C(=O)Nc2cccnc2)S(C)(=O)=O)cc1 (configuration not stated)	-6	-0.6	-5	15	5	9
33	Cc1ccc(CC2C(=O)N(c3ncccn3)C(=O)C2C)cc1 (configuration not stated)	-5	-0.8	-3	5	-5	4
34	O=c1oc2c(CN3CCCCC3)c(O)ccc2c2c1CCCC2	-31	-0.1	18	3	14	63
35	CCOc1ccc(OC(=O)NC(c2ccccc2)C(Cl)(Cl)Cl)cc1 (configuration not stated)	2	-0.1	5	5	-1	4
36	CC1CCc2c(nc3ncnn3c2N2CC(C)OC(C)C2)C1 (configuration not stated)	-13	-0.5	6	7	0	-2
37	COc1ccccc1/C=N/NC(=O)C(=O)N1CCN(c2ccccc2OC)CC1	-8	-0.7	7	-3	-5	-3
38	O=C(COC(=O)c1cc([N+](=O)[O-])ccc1N1CCOCC1)Nc1ccc(Cl)cc1	-28	-0.4	-2	3	-12	0
39	O=C(CCC1CCCC1)Nc1ccccc1-c1ccccc1	-14	0.9	-16	-26	24	-7
40	Cc1cccnc1NC(=O)CNC(=O)c1ccccc1	-2	2.0	-7	-3	10	5
41	COCCCN(CC(=O)Nc1ccc(F)cc1)S(=O)(=O)c1cccs1	-12	-0.6	.	18	10	.
42	CCOC(=O)c1nnn(CC(=O)Nc2cccc(F)c2)c1C(=O)OCC	-14	-0.8	-11	-8	6	2
43	c1ccc(CC2CCN(c3nc4ccccc4n4cnnc34)CC2)cc1	2	3.4	-3	10	-2	-4
44	CC(C)CNC(=O)C1CCCN(C(=O)NCc2ccccc2)C1 (configuration not stated)	-8	0.2	18	19	-2	.
45	COc1ccc(NC(=O)c2ccccc2Oc2ccccc2)c(OC)c1	-4	2.9	-6	54	-5	-14
46	C=CCC[C@H](Cc1ccc(F)cc1)C(=O)O[C@H](CNC(=O)[C@@H](CC=C)CC(=O)N(CCO)Cc1ccccc1)c1ccccc1	3	2.4	.	12	0	-6
47	C/C(=N\Nc1ccc(C#N)cc1[N+](=O)[O-])c1ccc(C)o1	-4	0.4	9	-1	-15	-17
48	COc1ccc(-c2nn(-c3ccccc3)cc2C(=O)NC2CCCCC2C)cc1 (configuration not stated)	-3	1.1	-16	0	5	5
49	N#CC1(NC(=O)COC(=O)CN2C(=O)c3ccccc3C2=O)CCCCC1	1	-0.6	6	0	4	6
50	O=C(COc1ccc2ccccc2c1Br)Nn1cnnc1	-9	0.9	-7	-2	1	-2
51	Cc1ccc(NC(=O)C2(C)CCN2C(=O)c2ccccc2CCc2ccccc2)cc1C (configuration not stated)	-10	-0.7	.	.	14	0
52	CCC(=O)N1CCc2cc(S(=O)(=O)NC(Cc3ccccc3)C(=O)NC3CCCCC3C)ccc21 (configuration not stated)	-8	-0.1	1	-9	0	10
53	O=S(=O)(Nc1ccccc1N1CCCCC1)c1ccc(Cl)s1	-4	97*	-29	-24	18	9
54	O=C(CCNC(=O)c1ccccc1Cl)NCCCSc1ccccc1	6	-1.0	7	11	-4	.
55	COCCn1c(SCC(=O)Nc2cccc(NC(C)=O)c2)nc2c([nH]c3ccccc32)c1=O	-2	-0.6	-10	-2	?	-9
56	CCc1c(C(=O)NCc2ccc3c(c2)OCO3)[nH]c(C)c1C(C)=O	-33	-0.4	4	24	-3	-5
57	COc1ccc(OC)c(NC(=O)CN(c2ccc(C)cc2)S(=O)(=O)c2c(C)noc2C)c1	5	5.7	1	48	-14	-7
58	COc1ccc(C2c3ccc4ccccc4c3Oc3ncn(CCN4CCOCC4)c(=N)c32)cc1OC (configuration not stated)	-27	-0.3	3	-1	-3	.
59	O=C(N1CCOCC1)N1CCN(c2ccccc2)CC1	0	-1.0	-16	-8	-2	5
60	COc1ccc(C(CNC(=O)Cc2ccccc2F)N2CCCCC2)cc1 (configuration not stated)	-17	-0.7	-1	-6	1	-1

No.	SMILES	D2 potentiator	TRPML1 agonist	TRPV1 potentiator	TRPML1 inh	Six1-Eya2 inh	CtBP-E1A blk
61	C#CCN(CC=C)C(=O)c1ccc2nc(C3CCCCC3)oc2c1	-10	0.4	-10	27	-4	.
62	Fc1ccc(-c2csc(-c3ccccn3)n2)cc1F	-7	0.9	-6	0	-4	.
63	CC(=O)c1cccc(CN2CCC(n3nccc3NC(=O)CCOc3ccccc3)CC2)c1	-16	-0.2	-8	40	3	2
64	C/C(=N/OC(=O)c1ccc(Cl)cc1Cl)c1oc(C)nc1C	2	1.6	1	9	3	6
65	COc1ccc(Cc2nnc(NS(C)(=O)=O)s2)cc1	-12	-0.3	1	-3	2	1

Source: PubChem (National Center for Advancing Translational Sciences (NCATS))
